eIF4H inh: inhibitors of RNA binding by human eIF4H | Q15056 | eIF4H fluorescence polarization binding assay | inhibition, % at 35 µM | hit rate 0.94% among 290,000;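 active = 50% or more with normal probe brightness, or confirmed in later tests; inconclusive = above 50% with abnormal brightness, or retests that disagree; inactive = below 50% or failed in later tests; about a fifth of its hits are not listed in these tables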;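 also: calls also rest on retests at 20 µM and on dose response follow-up; 0% = protein and probe with vehicle and 100% = probe without protein; strong numbers were not always called active; many hits fall short of the cut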
UUG fidelity: modulators of start codon recognition fidelity in yeast; AID 602363; activity score, % at 18.7 µM; hit rate 0.13% among 350,000; S. cerevisiae UUG-firefly luciferase reporter, luminescence/redox ratio;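 active = replicate mean at a twofold rise or more, about +100% in these data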;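 also: firefly luciferase made from a UUG start codon reports start codon fidelity; reporter light over untreated wells divided by growth signal over untreated wells; some hits fall short of that in this replicate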
CSC inhib: cancer stem cell inhibition; inhibition, % at 7.5 µM; hit rate 1.1% among 300,000; cancer stem cell-like cells viability, luminescence;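 active = mean at 75% or more and at least half the replicates too; inconclusive = mean and replicates disagree; tested in HMLE shEcad cells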;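 also: 0% = median of negative and 100% = median of positive control wells; the first replicate is given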
MT1-MMP act inh: inhibitors of human MT1-MMP activation; P50281; HT1080 RFP-PRO-GFP cells, GFP/RFP ratio fluorescence, overnight; percent of plate control window, DMSO zero; GFP/RFP ratio change, % at 20 µM; hit rate 0.061% among 360,000; AID 651647;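 active = GFP/RFP ratio change of at least 30% with cell ATP level not reduced by more than half and red fluorescence within 50% of control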; also: strong numbers were not always called active
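Assay system: HT1080 RFP-PRO-GFP cells | Dosing: 20 µM single dose, 1% DMSO | Incubation: Cells overnight before dosing, compound overnight, 37 °C, 5% CO2 | Evaluation: GFP/RFP fluorescence ratio | Control set: DMSO-only wells and HT1080 RFP-L50D-GFP cell wells as references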
PABP polyA inh: PABP-poly(A) binding inhibition. hit rate 1% among 290,000. P11940. inhibition, % at 35 µM. PABP-poly(A) RNA binding, fluorescence polarization. AID 2014;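 active = 50% or more with normal probe brightness, or confirmed in later tests; inconclusive = above 50% with abnormal brightness, or retests that disagree; inactive = below 50% or failed in later tests; about a fifth of its hits are not listed in these tables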;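 also: calls also rest on retests at 20 µM and on dose response follow-up; controls were probe without protein and protein plus probe with vehicle; some compounds called inactive have numbers as strong as hits; many hits fall short of the cut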
Target sequence (P11940 whole entry, looked up): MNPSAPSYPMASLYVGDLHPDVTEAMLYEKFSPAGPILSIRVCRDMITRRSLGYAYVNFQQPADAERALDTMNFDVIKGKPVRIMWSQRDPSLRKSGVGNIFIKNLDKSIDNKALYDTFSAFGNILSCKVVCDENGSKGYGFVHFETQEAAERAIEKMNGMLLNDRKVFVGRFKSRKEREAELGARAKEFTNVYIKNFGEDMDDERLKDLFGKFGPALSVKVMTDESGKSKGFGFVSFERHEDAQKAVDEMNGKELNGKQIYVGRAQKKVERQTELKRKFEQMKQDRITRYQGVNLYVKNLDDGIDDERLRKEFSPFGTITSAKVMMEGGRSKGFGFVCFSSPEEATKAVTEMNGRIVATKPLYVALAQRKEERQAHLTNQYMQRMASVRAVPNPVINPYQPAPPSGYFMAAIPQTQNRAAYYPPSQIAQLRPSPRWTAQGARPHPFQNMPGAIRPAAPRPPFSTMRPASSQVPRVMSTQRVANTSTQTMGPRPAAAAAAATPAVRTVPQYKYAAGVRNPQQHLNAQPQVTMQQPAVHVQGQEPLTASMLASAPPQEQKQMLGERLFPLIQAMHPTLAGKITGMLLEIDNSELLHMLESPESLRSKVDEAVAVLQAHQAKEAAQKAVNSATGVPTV
Rce1 inhib: blocks yeast Ras-converting enzyme | yeast membranes, quenched prenylated peptide cleavage fluorescence | calls only | Q03530 | hit rate 0.27% among 290,000 | AID 2563;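 active = fall in fluorescence gain of 50% or more versus controls, with final raw signal at or below 3038400; inconclusive = same 50% fall but final raw signal above 3038400; inactive = fall in fluorescence gain under 50%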;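 also: plate controls were neutral control wells for no effect and wells lacking membranes for full effect; tested at 10 µM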
Target sequence (Q03530 whole entry, looked up): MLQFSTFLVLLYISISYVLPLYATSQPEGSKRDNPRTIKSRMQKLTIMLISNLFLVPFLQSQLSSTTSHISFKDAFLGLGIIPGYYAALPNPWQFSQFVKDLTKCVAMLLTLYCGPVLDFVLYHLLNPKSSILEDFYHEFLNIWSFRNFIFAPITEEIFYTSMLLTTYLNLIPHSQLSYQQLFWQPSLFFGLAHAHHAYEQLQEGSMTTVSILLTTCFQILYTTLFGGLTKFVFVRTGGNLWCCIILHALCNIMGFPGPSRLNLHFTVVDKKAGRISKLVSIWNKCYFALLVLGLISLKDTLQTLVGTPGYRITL
HIV Env fusion: HIV envelope-mediated fusion inhibition. inhibition, % at 12.3 µM. hit rate 1.1% among 360,000. HeLa-JRFL Env/CEM21 cell fusion, luciferase;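 active = mean replicate inhibition score of at least 50 and every replicate individually at or above 50; inconclusive = only one of the two criteria met; inactive = mean below 50 and not all replicates reaching 50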;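 also: 0% = plate neutral controls and 100% = maraviroc near 300 nM; one replicate is shown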
MT1-MMP act inh RFP: also measured in MT1-MMP act inh; calls as there; RFP signal change, %; measured here: RFP expression control read;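 0 = vehicle wells; hits needed this value within 50% of zero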
* hit, by the source's call; i = inactive; u = inconclusive; x = not tested or not shown; & = joins results of further samples. An excerpt; rates above refer to the full screens.

SMILES	eIF4H inh	UUG fidelity	CSC inhib	MT1-MMP act inh	MT1-MMP act inh RFP	PABP polyA inh	Rce1 inhib	HIV Env fusion
O=C1CC(c2ccc(Cl)cc2)n2nc(NS(=O)(=O)c3ccc(F)cc3)nc2N1 (stereo not drawn)	10	-5	-4	1	4	-6	i	x
CN1C(=O)C(O)(CC(=O)/C=C\c2ccc3c(c2)OCO3)c2ccccc21 (stereo not drawn)	-7	-8	2	-2	-2	-2	i	14
Cc1cc(C)nc(N/N=C/c2ccco2)n1	-9	-32	-9	3	2	-2	i	x
C(=N\N1CCN(c2ccccn2)CC1)/c1ccco1	-1	-7	-13	0	1	4	i	-4
COc1ccc(C(O)c2nc(-c3ccc(Cl)cc3)cs2)cc1 (stereo not drawn)	x	-11	x	-3	-18	x	x	7
O=C(CCS(=O)(=O)c1cccc2nonc12)N1CCN(c2ccc(F)cc2)CC1	-4	-2	-1	-1	-4	7	i	-22
N/C(=N\OC(=O)CSc1ccccc1)c1ccc([N+](=O)[O-])cc1	3	x	5	1	2	-3	i	-21
O=C(O)/C(=C\c1c(C(=O)O)[nH]c2cc(Cl)cc(Cl)c12)c1ccccc1	x	-15	-7	-1	-1	x	x	2
CC[n+]1c(C)n(C)c2cc(S(=O)(=O)N(C)C)ccc21	2	x	5	-4	-1	34	i	6
O=C(NCCc1ccncc1)C(F)(F)F	2	-7	-2	6	7	-6	i	-29

Full records from above. Values in the order: eIF4H inh, UUG fidelity, CSC inhib, MT1-MMP act inh, MT1-MMP act inh RFP, PABP polyA inh, Rce1 inhib, HIV Env fusion
COc1ccc(C(O)c2nc(-c3ccc(Cl)cc3)cs2)cc1 (stereo not drawn) is listed with x, -11, x, -3, -18, x, x, 7
N/C(=N\OC(=O)CSc1ccccc1)c1ccc([N+](=O)[O-])cc1 is listed with 3, x, 5, 1, 2, -3, i, -21

Going on with the list.
SMILES	eIF4H inh	UUG fidelity	CSC inhib	MT1-MMP act inh	MT1-MMP act inh RFP	PABP polyA inh	Rce1 inhib	HIV Env fusion
C/C(=N\Nc1nc(C)cc(-c2ccccc2)n1)c1ccc(O)cc1	0	-11	-8	3	-11	2	i	-19
O=C(CCCOc1ccccc1)Nc1ccncc1	-2	-20	-8	-3	-6	4	i	x
COc1ccc(C(=O)Cc2cc3ccccc3oc2=O)cc1	-9	-7	-3	3	3	12	i	-32
COc1ccc(CN2CCOCCOCCN(Cc3ccc(OC)cc3)CCOCCOCC2)cc1	4	x	3	2	2	13	i	30
Cc1ccc(NC(=O)CN(C)CC(=O)Nc2ccc(N3CCOCC3)cc2)c(C)c1	-7	-5	x	1	3	8	i	4
COCCn1cc(C(=S)N2CCOCC2)c2ccccc21	4	-23	-9	-2	2	-3	i	-10
Nc1nc(SCC(=O)c2cc3ccccc3o2)n[nH]1	-7	x	-15	-3	3	19	i	-12
COc1cccc(C(=O)COC(=O)COc2c(C)cc(C)cc2C)c1	x	-2	x	-3	2	x	x	-3
CCn1c2ccccc2c2cc(/C=N/n3cn[nH]c3=S)ccc21	17	-9	-3	4	-2	4	i	-179
CCOC(=O)N1CCC(NC(=O)Cn2cccc2C(=O)c2ccccc2C)CC1	-4	-7	-19	0	3	-1	i	x
COc1ccc(N(C(=O)COc2cccc(C)c2)S(=O)(=O)c2ccc(C)cc2)cc1	-2	x	-2	6	5	-7	i	-21
Cc1cc(SCc2ccc([N+](=O)[O-])cc2)nc(=O)[nH]1	x	-8	2	-1	1	x	i	-2
CCc1ccc(S(=O)(=O)N(C(=O)c2ccncc2)c2ccc(OC(=O)c3ccncc3)cc2)cc1	1	-10	1	0	-1	-2	i	x
CC(c1ccccc1)N1CCn2c(nc3cc(NC(=O)NC4CCCCC4)ccc32)C1 (stereo not drawn)	0	-24	-2	-2	-2	16	i	8
Cc1ccc(S(N)(=O)=O)cc1NC(=O)/C=C/c1ccc2c(c1)OCO2	3	x	-11	0	-1	-4	i	-5
Cc1ccc(NC(=O)CCNC(=O)c2ccc(Br)cc2)nc1	-2	5	-1	1	2	-9	i	13
CCOC(=O)C1=C(COC(=O)/C=C/c2ccc(Cl)cc2)NC(=O)NC1C (stereo not drawn)	-6	-12	4	5	4	-5	i	6
CCOC(=O)c1c(C)[nH]c(C)c1S(=O)(=O)N(C)CC(=O)Nc1cccc(F)c1	-3	4	-13	-2	-2	11	i	8
Cn1c(=O)c2ncn(CC(=O)NCCOCc3ccccc3Cl)c2n(C)c1=O	-3	x	-9	3	4	3	i	x
CCO[C@@H]1OC(C(=O)Nc2ccccc2)=C[C@H](c2ccccc2)[C@H]1CCCO	6	2	-6	3	-1	7	i	23
Cc1cc(-n2c(C)cc(C(=O)CSc3nncn3C)c2C)no1	x	-24	3	1	1	x	x	24
COc1ccccc1N/C(N)=N/c1nc(C(F)(F)F)cc(=O)[nH]1	-11	2	-5	1	-5	-9	i	-22
CC(=O)Nc1ccc(C(=O)NC2CCSc3ccccc32)cc1 (stereo not drawn)	-1	-2	3	1	2	21	i	-114
O=C(Oc1ccccc1N1CCOCC1)c1ccccc1	3	-6	-7	-4	0	-8	i	-1
CCOC(=O)/C=C1\SCC(=O)N1CC(=O)NCc1cccc(Cl)c1	4	x	x	3	4	-3	i	-7
Cc1ccc(NS(=O)(=O)c2cccc(C(=O)N3CCOCC3)c2)cc1	-10	-5	x	0	3	-8	i	x
CC(C)NC(=O)C1(C)Cc2c(-c3cccc(C(F)(F)F)c3)ccnc2O1 (stereo not drawn)	x	-17	x	1	-1	x	x	-17
COc1ccccc1C(O)c1ncc(-c2cccc(C(F)(F)F)c2)[nH]1 (stereo not drawn)	x	0	x	5	-2	x	x	15
Cc1ccc(NC(NC(=O)OCCn2c([N+](=O)[O-])cnc2C)C(Cl)(Cl)Cl)cc1 (stereo not drawn)	8	x	23	x	x	2	i	x
Cc1ccc(NC(=O)CCn2cc(C(F)(F)F)ccc2=O)cc1	-3	-10	-10	x	x	1	i	-9
c1ccc(Cn2nnc3c(N4CCN(Cc5ccc6c(c5)OCO6)CC4)ncnc32)cc1	-4	8	68	-8	-10	6	i	u
Cc1ccccc1Nc1c(-c2ccc(N3CCOCC3)cc2)nc2ncccn12	-1	x	-7	-3	2	0	i	-10
CCC(=O)N1CCC1(C)C(=O)Nc1ncc(C)s1 (stereo not drawn)	x	-15	x	4	5	x	x	5
CN(Cc1ccccc1)C(=O)c1cc(-c2ccc(Br)cc2)on1	-15	-10	11	11	-2	6	i	x
Cc1cc(C)nc(NS(=O)(=O)c2ccc(N=Cc3c(C)[nH]n(-c4ccccc4)c3=O)cc2)n1	-9	-2	-5	-4	1	6	i	x
O=C(NC1CCN(Cc2ccccc2)CC1)c1ccccc1Cl	4	5	-8	2	5	5	i	-29
COc1ccc(-c2cc(C)no2)cc1S(=O)(=O)NCCCN1CCN(c2ccccc2)CC1	16	-16	5	-1	-17	-2	i	7
O=C(CCCOc1ccccc1)Nc1nnc(C2CCCO2)s1 (stereo not drawn)	-7	-11	-9	5	4	-5	i	5
CC(=O)Nc1ccc(NC(=O)C(C)OC(=O)c2ccc3[nH]c(C)c(C)c3c2)cc1 (stereo not drawn)	x	-8	-11	2	-3	x	i	19
Cc1ccc(N(CC(=O)NCc2ccncc2)S(C)(=O)=O)cc1	24	-7	-9	2	2	6	i	x

Ordered by length of the SMILES (rising): part of the list above
SMILES	eIF4H inh	UUG fidelity	CSC inhib	MT1-MMP act inh	MT1-MMP act inh RFP	PABP polyA inh	Rce1 inhib	HIV Env fusion
COCCn1cc(C(=S)N2CCOCC2)c2ccccc21	4	-23	-9	-2	2	-3	i	-10
CC(=O)Nc1ccc(C(=O)NC2CCSc3ccccc32)cc1 (stereo not drawn)	-1	-2	3	1	2	21	i	-114
CC(C)NC(=O)C1(C)Cc2c(-c3cccc(C(F)(F)F)c3)ccnc2O1 (stereo not drawn)	x	-17	x	1	-1	x	x	-17

(more compounds)
SMILES	eIF4H inh	UUG fidelity	CSC inhib	MT1-MMP act inh	MT1-MMP act inh RFP	PABP polyA inh	Rce1 inhib	HIV Env fusion
COc1ccc(S(=O)(=O)NC(=O)C2(C)CCN2C(=O)CC2CCCC2)cc1 (stereo not drawn)	x	-14	x	0	5	x	x	-14
COc1ccc(NC(=O)Nc2cccc3c2O[C@H](CN(C)S(=O)(=O)c2ccccc2)[C@@H](C)CN([C@H](C)CO)C3=O)cc1	x	4	x	2	-1	x	x	-30
CCCCOc1c(Cl)cc(CNC(C)(C)CO)cc1OCC	0	-9	-13	2	-1	-2	i	x
CCCn1c(N)c(N(CCOC)C(=O)c2ccc(-c3ccc(Cl)cc3)o2)c(=O)[nH]c1=O	x	-8	x	0	0	x	i	-1
COc1cc(/C(C)=N/NC(=O)c2nnn(-c3nonc3N)c2-c2cccs2)ccc1O	-11	-28	4	-7	-5	-12	i	20
CCOC(=O)C1(Cc2cccc(OC)c2)CCCN(Cc2cc(C(C)C)n[nH]2)C1 (stereo not drawn)	1	-7	-2	3	-2	0	x	-3
NC(=O)c1cc([N+](=O)[O-])ccc1NCCN1C(=O)c2ccccc2C1=O	1	x	-7	x	x	37	i	x
CCc1cc2c(=O)c(-c3nc4ccccc4n3C)c(C)oc2c(CN2CCN(CCO)CC2)c1O	-15	-16	-5	-1	1	-11	i	x
CCCCn1nc2cc(C(=O)NC3CCCc4ccccc43)ccc2c1OCC (stereo not drawn)	-4	-3	3	0	-4	-8	i	17
Cc1nn(-c2ccc(N3CCCCC3)nn2)c(C)c1CCC(=O)Nc1cc(F)ccc1F	-6	3	-10	4	-4	8	i	-38

A different layout for some results above:
structure,eIF4H inh,UUG fidelity,CSC inhib,MT1-MMP act inh,MT1-MMP act inh RFP,PABP polyA inh,Rce1 inhib,HIV Env fusion
Cc1ccc(NC(=O)CCNC(=O)c2ccc(Br)cc2)nc1,-2,5,-1,1,2,-9,i,13
CCOC(=O)C1=C(COC(=O)/C=C/c2ccc(Cl)cc2)NC(=O)NC1C (stereo not drawn),-6,-12,4,5,4,-5,i,6
CCOC(=O)c1c(C)[nH]c(C)c1S(=O)(=O)N(C)CC(=O)Nc1cccc(F)c1,-3,4,-13,-2,-2,11,i,8
Cn1c(=O)c2ncn(CC(=O)NCCOCc3ccccc3Cl)c2n(C)c1=O,-3,x,-9,3,4,3,i,x

Other records:
SMILES	eIF4H inh	UUG fidelity	CSC inhib	MT1-MMP act inh	MT1-MMP act inh RFP	PABP polyA inh	Rce1 inhib	HIV Env fusion
c1ccc(C2CCC(N3CCC(N4CCCCC4)CC3)CC2)cc1 (stereo not drawn)	9	x	60	x	x	10	i	x
O=C(NCc1ccc(F)cc1)C(c1ccccc1)N(C(=O)c1csnn1)C1CC1 (stereo not drawn)	7	3	x	1	4	-4	i	-22
CN(C)c1ccc(C2N(C)C(=O)c3ccccc3N2C)cc1 (stereo not drawn)	2	-12	-6	1	-4	-10	i	5
Cc1nc2ccccc2c(=O)n1NC(=O)c1cccc([N+](=O)[O-])c1	2	x	-12	1	1	-6	i	-29
NCc1ccc(S(N)(=O)=O)cc1	-10	2&-28	-13	3&2	4&3	16	i	-4&17
O=C(NCC1COc2ccccc2O1)C1(c2ccccc2)CCCC1 (stereo not drawn)	4	x	-5	-3	-8	-9	i	16
Cc1ccc(S(=O)(=O)NCC(=O)NCC(=O)N(C)Cc2ccc3ccccc3c2)cc1C	-14	-2	-25	1	-19	1	i	30
COCCN(C(=O)c1cccc(-n2cnnn2)c1)c1c(N)n(CC(C)C)c(=O)[nH]c1=O	x	x	-9	0	4	x	i	x

High-throughput results as filed in PubChem BioAssay.
